From PubChem
Mtb hypoxia inh: Mtb hypoxia fluorescent reporter inhibition; M. tuberculosis hypoxia-regulated fluorescent reporter, fluorescence; fluorescence inhibition, % (concentration not given with the values); actives 0.1% (n = 300,000); AID 1159583;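 active = 35 to 45% if threefold the growth effect, above 45% if 1.5-fold the growth effect; inactive = the rest, general growth blockers included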;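 also: wells of about 50 µL received 100 nL stock; 0% = vehicle wells and 100% = reference inhibitor wells; whole bacteria with a GFP reporter of the hypoxia response; strong numbers were not always called active; many hits fall short of the cut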
Bead autofluor: compound fluorescence in toxin protease inhibitor counterscreen; fluorescence intensity (test concentration not listed); compound autofluorescence counterscreen, microsphere flow cytometry; stronger effect = higher value; actives 3.1% (n = 360,000);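 active = at least 3 SD above the mean of all compounds, about 16000 in these data; inconclusive = too few beads counted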;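 also: 100 nL of 1 mM stock went into each well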
PrP 5UTR inh: suppresses PrP 5' UTR mRNA reporter expression | inhibition, % (concentration not given with the values) | AID 488862 | cell-based PrP 5' UTR mRNA reporter, plate reader | actives 0.35% (n = 340,000);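 active = every replicate at 50% or more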;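 also: 0 = median of the neutral control wells; tested in H4 reporter cells; numbers are from one replicate; inactives centre near -14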
Sa RN4220 lethal: kills Staphylococcus aureus RN4220; S. aureus RN4220 growth, OD600, 16 h; inhibition, % (test concentration not listed); actives 0.33% (n = 330,000); AID 1259311;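 active = z-score of -3 or lower and OD600 up to 0.18 on both plates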;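 also: plate controls were untreated cells for no effect and reference antibiotic for full effect; stock transfer was 100 nL into about 80 µL; one replicate is shown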
BJeLR viability: BJeLR cell viability loss; actives 0.17% (n = 300,000); BJeLR (HRASV12) viability, CellTiter-Glo ATP luminescence, 48 h; reference of the scale not given here; inhibition, % (test concentration not listed); AID 1554;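 active = replicate mean above 50%; inconclusive = above 50% but judged a plate artefact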;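 also: 50 nL library stock added to about 25 µL; numbers are from one replicate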
Sa ugtP lethal: kills S. aureus RN4220 lacking UgtP. S. aureus RN4220 ugtP deletion, OD600 growth, 16 h; some inactives read as strong as hits. growth inhibition, % (no concentration beside the values). actives 0.54% (n = 330,000);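 active = z-score under -3 and OD600 up to 0.15 on both plates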;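 also: plate controls were untreated wells for no effect and antibiotic for full effect; wells of about 80 µL received 100 nL stock; the first replicate is given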
Mtb hypoxia inh growth: further read-out of Mtb hypoxia inh, marked with its call; growth inhibition, %; measured here: M. tuberculosis growth (absorbance);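 0% = vehicle and 100% = reference antibiotic; read after six days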
The depositor's hits bear a star; ? = inconclusive; nt = no result given.

SMILES	Mtb hypoxia inh	Mtb hypoxia inh growth	Bead autofluor	PrP 5UTR inh	Sa RN4220 lethal	BJeLR viability	Sa ugtP lethal
CCCCNc1nc(-c2ccccc2)cc(C(F)(F)F)c1C(N)=O	9	5	10414	-3	1.5	0	35
N#CCON=CC(=O)Nc1ccc(F)cc1F	12	3	nt	nt	7.9	nt	-1
CCN(CC)S(=O)(=O)c1cc(NC(=O)COC(=O)CCC(=O)c2cccs2)ccc1C	12	-6	4905	-48	7.0	-19	4
C[C@]12CC[C@H](O)CC1=CCC1C2CC[C@@]2(C)C1CC[C@@H]2NC(=O)[C@@H](N)Cc1cnc[nH]1 (some centres not stated)	8	17	3903	-23	3.3	nt	7
Cc1cc(C)c2nc3sc(C(=O)N4CCOCC4)c(N)c3cc2c1	8	8	5284	44	7.3	46	14
CC(=O)N1CN(C(C)=O)CN(C(C)=O)C1	1	-2	2476	-4	4.0	-6	2
O=C(NCc1cccnc1)c1nn2cccnc2c1Cl	2	3	4758	-27	1.1	-7	4
COc1ccc(C2=NN(C(=O)COC(=O)c3ccc(NC(=O)CC#N)cc3)C(c3ccco3)C2)cc1 (configuration not stated)	-3	2	9345	-24	6.1	nt	-30
COc1ccc(-n2c(/C=C(\C)O)nc(=O)c3c(C)cc(C)nc32)cc1	-2	10	22184*	24	-0.2	4	-1
O=C1CCCN2N=C(SCC(=O)Nc3ccc([N+](=O)[O-])cc3)SC2=N1	3	1	3415	-4	-0.7	-10	2
O=C(NCCc1ccc2c(c1)OCCO2)c1cc2ccccc2o1	-6	7	8955	-8	-1.6	0	2
CCNC(=S)NNC(=O)c1ccc2ncccc2c1	-7	2	3475	1	4.7	-3	7
c1ccc2ncccc2c1	nt	nt	4253	63*	-1.0	nt	-1
CCOC(=O)NC(=O)CSc1ccc(S(=O)(=O)N(C)C2CCCCC2)cn1	-14	-3	?	-2	-0.3	nt	-6
CN(CC1COc2ccccc2O1)C(=O)Cn1cc(C(F)(F)F)ccc1=O (configuration not stated)	-4	1	8618	-3	1.6	nt	1
O=C(CN1CCN(c2ccccc2)CC1)NC(=O)NCc1ccco1	4	3	8786	-22	-3.0	9	10
CCCNC(=O)c1oc2ccc3c(c2c1C)C(O)CC(C)(C)O3 (configuration not stated)	-6	3	3799	4	-0.4	-3	-5
O=c1c2c(c(-c3ccccc3)nn1Cc1ccccc1)CCCC2	6	1	3050	0	-8.0	0	16
O=Cc1cn(Cc2ccc([N+](=O)[O-])cc2)c2ccccc12	5	11	3333	45	-1.0	-13	-9
Cc1c(Br)c([N+](=O)[O-])nn1CC(=O)Nc1c(C)n(C)n(-c2ccccc2)c1=O	4	5	2160	-15	-0.1	0	7
Cc1ccccc1Nc1nc2nonc2nc1N1CCOCC1	-6	-2	9184	-30	5.1	-5	2
Cc1nc2ccccc2nc1N1CCOCC1	2	4	2992	-5	7.1	-10	0
Cc1ccccc1CN1CCC(Oc2ccc(C(=O)NCc3ccccn3)cc2)CC1	7	3	5885	-1	0.4	8	6
NC(=O)C1CCN(c2cc(Cl)nc(N)n2)CC1	8	3	4394	-2	3.3	8	3
COc1ccc(-c2[nH]n(-c3ccc([N+](=O)[O-])cc3)c(=O)c2C=NCc2ccccc2)cc1	-2	-6	2531	-22	-10	2	17
(next part)
SMILES	Mtb hypoxia inh	Mtb hypoxia inh growth	Bead autofluor	PrP 5UTR inh	Sa RN4220 lethal	BJeLR viability	Sa ugtP lethal
COc1ccc(-n2nnnc2CNC(=O)C(=O)c2c(C)[nH]c3ccccc23)cc1	10	9	4565	-18	1.3	7	2
Cc1ccc(-c2csc(N/N=C/C=C/c3ccccc3)n2)cc1	nt	nt	8175	-5	nt	-1	nt
CCCn1nnc(NCc2ccc(OCc3cccs3)c(OC)c2)n1	12	9	17112*	-23	3.8	-10	8
O=C(Nc1nc2ccc(F)cc2s1)c1cccs1	6	7	3273	-164	-2.0	-16	1
CC1=NN(C(=O)c2ccc(Cn3nc(C)c(Br)c3C)cc2)C(O)(C(F)(F)F)C1 (configuration not stated)	14	8	1969	-15	-4.0	1	5
Cc1ccnc(NS(=O)(=O)c2ccc(NC(=O)C3CC=CCC3C(=O)O)cc2)n1 (configuration not stated)	-9	16	4627	-18	1.2	4	-3
OC(CNCCc1c[nH]c2ccccc12)c1ccccc1 (configuration not stated)	6	3	3546	-13	-1.8	-10	6
COc1ccc(NC(=O)CCCn2cnc3ccccc3c2=O)c(OC)c1	-12	2	3740	-4	0.6	-8	2
O=C(Nc1ccc(Cl)cc1)ON=C(c1ccccc1)c1ccccn1	10	12	nt	nt	-1.5	nt	-8
Cc1nnc(NC(=O)c2nc(S(=O)(=O)Cc3ccccc3)ncc2Cl)s1	nt	nt	5552	-26	nt	-5	nt
COc1ccc2oc(=O)c(C(=O)NC(C)c3ccccc3)cc2c1 (configuration not stated)	0	0	3156	-19	0.4	-8	2
CCC(Oc1ccccc1)C(=O)Nc1ccccc1OC (configuration not stated)	18	11	11450	-15	8.1	-8	8
COc1cc(C(=O)NCc2nnc(SCC(=O)N3CCCc4ccccc43)o2)cc(OC)c1OC	6	3	2799	-43	2.9	3	4
O=C(CNC(=O)c1ccc(F)cc1)NN=Cc1cccnc1	4	2	nt	nt	-1.4	nt	10
N#CC1=C(N)Oc2nc(-c3ccccc3)[nH]c2C1c1cccnc1 (configuration not stated)	11	12	2221	-30	-1.0	2	-2
CCN1CCN(CC(=O)Nc2c(C(=O)OC)[nH]c3cccc(Cl)c23)CC1	1	6	nt	nt	1.6	0	7
Cc1cc(-c2ccccc2)nc2c(Br)c(C(=O)O)nn12	10	7	4655	nt	5.6	1	-1
COCCNC(=O)C(c1cccs1)N(Cc1ccccc1)C(=O)Cn1nnc2ccccc21 (configuration not stated)	nt	nt	5036	-23	4.3	2	8
COCCNc1oc(/C=C/c2ccccc2)nc1C#N	-15	-8	4218	-106	3.8	5	0
COc1ccc(C2CC(C(F)(F)F)n3nc(CO)c(Cl)c3N2)cc1OC (configuration not stated)	-3	2	16477*	-18	-5.8	3	-12
Cc1ccc(C(=O)CN2CCC(NC(=O)C3CCCCC3)CC2)cc1	-2	12	5617	-13	2.8	-8	-5
CCN(C(=O)CCC(=O)N(CC)c1ccccc1)c1ccccc1	-8	6	2030	-26	3.2	-8	-3
C[C@H]1CN([C@@H](C)CO)C(=O)Cc2cc(NC(=O)CCN3CCOCC3)ccc2O[C@@H]1CN(C)Cc1ccc(Oc2ccccc2)cc1	-8	8	3241	-4	6.7	nt	-5
O=C(Cc1ccc(Cl)cc1)Nc1cc(S(=O)(=O)N2CCOCC2)ccc1N1CCCC1	7	8	4713	-10	3.2	5	3
CC(C)(C)OC(=O)NCCC(=O)N/N=C/c1ccc2ncccc2c1	nt	nt	3662	-13	nt	-4	nt

Among those listed so far, 2 contain a COOH group.
SMILES	Mtb hypoxia inh	Mtb hypoxia inh growth	Bead autofluor	PrP 5UTR inh	Sa RN4220 lethal	BJeLR viability	Sa ugtP lethal
Cc1ccnc(NS(=O)(=O)c2ccc(NC(=O)C3CC=CCC3C(=O)O)cc2)n1 (configuration not stated)	-9	16	4627	-18	1.2	4	-3
Cc1cc(-c2ccccc2)nc2c(Br)c(C(=O)O)nn12	10	7	4655	nt	5.6	1	-1

Next part
SMILES	Mtb hypoxia inh	Mtb hypoxia inh growth	Bead autofluor	PrP 5UTR inh	Sa RN4220 lethal	BJeLR viability	Sa ugtP lethal
Cc1c(Br)ccc(NC(=O)CCN2C(=O)C3C4CCC(C4)C3C2=O)c1C (configuration not stated)	7	5	23010*	-10	2.5	-1	2
COC(=O)[C@H](C(C)C)N(Cc1ccccc1)S(=O)(=O)CCNC1CCCC1	2	8	3917	-15	1.8	nt	-2
O=C(CN(C(=O)CCC(=O)Nc1nccs1)c1ccc(F)c(Cl)c1)NCc1ccco1	nt	nt	2606	-4	4.0	5	-5
CC(CC(C)C)=NNS(=O)(=O)c1ccc(C)c([N+](=O)[O-])c1	-5	-18	nt	nt	0.1	nt	-4
CC(=O)Nc1ccc(S(=O)(=O)NC2=NCN(CCOC(=O)c3ccccc3)CN2)cc1	24	-22	2538	-20	-19	-5	-5
COc1cc2nc(CN3CCN(S(=O)(=O)c4ccc(Br)cc4)CC3)[nH]c(=O)c2cc1OC	7	7	4085	-53	2.5	nt	2
Cn1c(N)c(C(=O)COC(=O)c2ccccc2C(=O)c2ccc(Cl)cc2)c(=O)n(C)c1=O	1	0	3764	-18	4.5	nt	-6
C#CCOCCOCCOCCNc1nc(N2CCN(C(=O)C(CCCCN)n3cc(CN)nn3)CC2)nc(N2CCN(C(=O)C(CCCCN)n3cc(CN)nn3)CC2)n1 (configuration not stated)	3	3	nt	nt	8.8	nt	0
Cc1nn(Cc2c(F)c(F)c(F)c(F)c2F)c(C)c1NC(=O)c1ccc(COc2ccc(Cl)cc2Cl)o1	5	9	2241	-15	-13	0	-53
CC(OC(=O)c1ccccc1C(=O)N(C)Cc1ccccc1)C(=O)NC1(C#N)CCCCC1 (configuration not stated)	-1	2	5095	-60	3.4	nt	2
O=C(NC1CC1)c1ccc(COc2ccc(F)cc2)o1	-3	4	2864	-15	10	-4	0
CC(C)Sc1nnc(Cn2c(=O)sc3ccccc32)n1-c1ccccc1	nt	nt	6334	-26	4.1	-8	6
OCCCN=C1CCCc2c1[nH]c1ccc(Cl)cc21	6	-1	5101	-5	1.3	-9	-5
COc1ccccc1NC(=O)Cc1noc(CSc2nnc(C)s2)n1	-2	4	22803*	-6	4.3	-1	1
C/C(=N\NC(N)=O)C1CC(Cc2ccccc2)C(=O)O1 (configuration not stated)	nt	nt	4380	-11	nt	-4	nt
Nc1ncnc(Nc2cccc(C(F)(F)F)c2)n1	5	-1	17187*	-10	4.8	10	-6
Nc1ccc(C(=O)N2CCCC2)cc1CS(=O)(=O)c1ccc(Cl)cc1	3	9	2503	-15	4.5	1	-2
COCCN(C(=O)COC(=O)/C=C/c1cccs1)c1c(N)n(Cc2ccccc2)c(=O)[nH]c1=O	7	2	nt	1	2.4	3	7
Cc1ccc(S(=O)(=O)CC(=O)N2CCN(c3cccc(C(F)(F)F)c3)CC2)cc1	7	9	5109	1	3.1	6	-3
Cc1ccc(NC(=O)c2cccc(F)c2)cc1S(=O)(=O)N1CCCCCC1	-4	0	3929	-18	9.3	6	1
Cc1nn(CC(=O)NNC(=O)c2cccc(Br)c2)c(C)c1[N+](=O)[O-]	-2	-5	3980	0	6.3	7	16
Cc1cc(C(=O)OCC(=O)NCc2ccco2)c(C)n1-c1ccccc1	nt	nt	3931	-41	-2.0	20	-6
CCCCN(C(=O)CN(C)CC(=O)Nc1cccc(OC)c1)c1c(N)n(CCCC)c(=O)[nH]c1=O	2	8	5038	5	1.5	nt	3
Cc1ccc2nc3c(cc(S(=O)(=O)c4ccccc4)c(=N)n3Cc3ccco3)c(=O)n2c1	-3	2	3351	-24	4.7	-12	7
COc1ccc(C)cc1NC(=S)NC(C)c1ccc(OC)c(OC)c1 (configuration not stated)	6	10	4339	9	3.6	2	5

Taken from above:
Under BJeLR viability, CC(C)Sc1nnc(Cn2c(=O)sc3ccccc32)n1-c1ccccc1 shows -8
Under BJeLR viability, O=C(CN(C(=O)CCC(=O)Nc1nccs1)c1ccc(F)c(Cl)c1)NCc1ccco1 shows 5

Remaining list, next part:
SMILES	Mtb hypoxia inh	Mtb hypoxia inh growth	Bead autofluor	PrP 5UTR inh	Sa RN4220 lethal	BJeLR viability	Sa ugtP lethal
COC(=O)C1=C(c2ccc(OC(F)(F)F)cc2)CC2CCC1N2C(=O)NCCOc1ccccc1 (configuration not stated)	-11	-1	nt	nt	-4.2	nt	6
Cc1nn(C)cc1S(=O)(=O)Nc1ccc(C(F)(F)F)cc1	3	-3	6830	-32	3.4	1	5
C=C(C)COc1ccc(-c2[nH]ncc2-c2ccc(Br)cc2)c(O)c1	8	3	2395	-21	-12	25	80
Cc1cccc(NC2=CC(=O)OC(C)C2)c1 (configuration not stated)	22	2	3591	-4	-12	-5	-9
CC(=NNc1nc2ccccc2[nH]1)c1ccc(N2CCOCC2)cc1	-15	1	nt	nt	0.6	nt	1
Fc1ccccc1N1CCN(Cc2cnc(Cl)s2)CC1	8	4	4641	-14	6.6	7	4
O=[N+]([O-])c1cc(CS(=O)(=O)Oc2ccc(Cl)cc2)c(O)c([N+](=O)[O-])c1	-8	5	6065	-32	17	3	-6
CCOC(=O)C1=CN(Cc2cccc(F)c2)S(=O)(=O)NC1c1cccc(OC)c1 (configuration not stated)	6	-4	2996	-21	4.2	nt	13
CCOc1ccc(S(=O)(=O)Nc2cccc(OC)c2)cc1	15	-3	7750	-33	6.4	7	0
O=C(Nc1ccc(S(=O)(=O)NCc2ccccc2)cc1)C1CCCCC1	-2	5	nt	-3	0.9	1	-3
